Source: PubChem BioAssay
CSC inhib – blocks cancer stem cells. cancer stem cell-like cells viability, luminescence. inhibition, % at 7.5 µM. actives 1.1% (n = 300,000). AID 2717;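 active = mean at 75% or more and at least half the replicates too; tested in HMLE shEcad cells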;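 note: 0% = median of negative and 100% = median of positive control wells; the first replicate is given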
UUG fidelity – alters start codon recognition fidelity in yeast. activity score, % at 18.7 µM. actives 0.13% (n = 350,000). S. cerevisiae UUG-firefly luciferase reporter, luminescence/redox ratio;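 active = replicate mean at a twofold rise or more, about +100% in these data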;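 note: firefly luciferase made from a UUG start codon reports start codon fidelity; reporter light over untreated wells divided by growth signal over untreated wells; some hits fall short of that in this replicate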
MT1-MMP act inh – blocks activation of human MT1-MMP; HT1080 RFP-PRO-GFP cells, GFP/RFP ratio fluorescence, overnight; percent of plate control window, DMSO zero; P50281; actives 0.061% (n = 360,000); GFP/RFP ratio change, % at 20 µM;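 active = GFP/RFP ratio change of at least 30% with cell ATP level not reduced by more than half and red fluorescence within 50% of control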; note: strong numbers were not always called active
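Material: RFP-PRO-GFP reporter HT1080 cells. Dosing: single-point 20 µM compound, 1% DMSO. Controls: DMSO and RFP-L50D-GFP cell wells. Timing: cells overnight before dosing, compound overnight, 37 °C, 5% CO2. Measure: GFP/RFP fluorescence ratio.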
eIF4H inh – inhibitors of RNA binding by human eIF4H; inhibition, % at 35 µM; actives 0.94% (n = 290,000); eIF4H fluorescence polarization binding assay; Q15056;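 active = 50% or more with normal probe brightness, or confirmed in later tests; about a fifth of its hits are not listed in these tables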;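 note: calls also rest on retests at 20 µM and on dose response follow-up; 0% = protein and probe with vehicle and 100% = probe without protein; strong numbers were not always called active; many hits fall short of the cut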
Env fusion inh – blocks HIV Env-driven cell-cell fusion; HeLa-JRFL Env/CEM21 cell fusion, luciferase; inhibition, % at 12.3 µM; actives 1.1% (n = 360,000); AID 651610;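 active = mean replicate inhibition score of at least 50 and every replicate individually at or above 50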;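 note: 0% = plate neutral controls and 100% = maraviroc near 300 nM; one replicate is shown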
PABP FP inh – blocks human PABP binding to poly(A) RNA. actives 1% (n = 290,000). P11940. AID 2014. fluorescence polarization. inhibition, % at 35 µM;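 active = 50% or more with normal probe brightness, or confirmed in later tests; about a fifth of its hits are not listed in these tables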;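 note: calls also rest on retests at 20 µM and on dose response follow-up; controls were probe without protein and protein plus probe with vehicle; some compounds called inactive have numbers as strong as hits; many hits fall short of the cut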
Rce1 inh – inhibitors of yeast Ras-converting enzyme. Q03530. actives 0.27% (n = 290,000). yeast membranes, quenched prenylated peptide cleavage fluorescence. calls only;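 active = fall in fluorescence gain of 50% or more versus controls, with final raw signal at or below 3038400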;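 note: plate controls were neutral control wells for no effect and wells lacking membranes for full effect; tested at 10 µM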
Target sequence (Q03530 whole entry, looked up): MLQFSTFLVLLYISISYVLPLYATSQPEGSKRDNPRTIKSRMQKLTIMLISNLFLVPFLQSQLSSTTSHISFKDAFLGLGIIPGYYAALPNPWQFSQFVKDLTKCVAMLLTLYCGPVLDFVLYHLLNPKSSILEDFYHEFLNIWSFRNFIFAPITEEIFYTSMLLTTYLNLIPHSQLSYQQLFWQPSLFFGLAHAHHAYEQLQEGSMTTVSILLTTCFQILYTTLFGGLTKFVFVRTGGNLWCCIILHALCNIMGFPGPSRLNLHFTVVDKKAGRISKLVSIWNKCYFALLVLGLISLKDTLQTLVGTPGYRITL
eIF4H inh retest – further read-out of eIF4H inh, marked with its call; inhibition, %; compound at 20 µM; confirmation average;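 mean of two retest wells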
PABP FP inh retest – recorded beside PABP FP inh, whose call it bears; inhibition, %; compound at 20 µM; confirmation repeats;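 mean of two retest wells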
MT1-MMP act inh RFP – also measured in MT1-MMP act inh; calls as there; RFP signal change, %; measured here: RFP expression control read;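 0 = vehicle wells; hits needed this value within 50% of zero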
Active calls of the source: *; i = inactive; nt = not tested or not shown; & = joins results of further samples.

SMILES	CSC inhib	UUG fidelity	MT1-MMP act inh	MT1-MMP act inh RFP	eIF4H inh	Env fusion inh	PABP FP inh	Rce1 inh	others
CC1CC(=O)Nc2ccccc2N1C(=O)CSc1ccc2ccccc2n1 (configuration not stated)	-12	9	11	-2	nt	11	nt	nt
Cc1cc(C)c(C)c(S(=O)(=O)N2C(=S)NC(=O)C2CC(C)C)c1C (configuration not stated)	22	-11	8	-8	-1	nt	4	i
Cc1ccc(NC(=O)/C=C/c2ccc3c(c2)OCO3)cc1S(=O)(=O)N1CCOCC1	-12	-20	-1	-5	-4	16	-5	i
CC1CCN(CCCCOc2ccc(F)cc2)CC1	13	-11	5	6	6	nt	7	i
COc1ccc(OS(=O)(=O)Cc2ccccc2)cc1	-13	-11	0	0	-3	5	-6	i
COc1ccc(OC)c(CNCc2ccc3c(c2)OCO3)c1	-3	-14	-2	1	14	9	20	i
CC(N=c1ccccn1C(=O)Nc1ccc(F)cc1)c1ccco1 (configuration not stated)	-5	-18	11	4	-7	nt	-10	i
N#Cc1ccc(OCC(=O)N2CCN(S(=O)(=O)c3cccs3)CC2)cc1	5	-11	-5	-2	15	nt	3	i
CCOC(=O)[C@@H]1[C@H]2COc3ccc(Br)cc3[C@H]2N2C(=O)N(c3ccc(F)cc3)C(=O)[C@@]12C	10	-15	1	2	9	nt	11	i
COc1ccc(Cl)cc1NC(=S)N(Cc1cccnc1)Cc1ccco1	13	nt	-4	1	-2	-3	23	i
Cc1ccc(S(=O)(=O)N2CCCC(C(=O)NC3CCCC3)C2)cc1Cl (configuration not stated)	nt	2	2	-5	6	9	14	i
CN(C)c1nc(N)nc(Nc2ccccc2C#N)n1	nt	4	-8	-2	-14	nt	-11	i
CN1CCC(=O)N([C@H](CSc2ccccc2)Cc2ccccc2)CC1	-1	-3	-4	-4	-7	-18	-6	i
Cc1c(N=C2SCC(=O)N2/N=C/c2ccccc2Cl)c(=O)n(-c2ccccc2)n1C	-23	-15	9	-3	-8	-157	7	i
Cn1c(CCNC(=O)c2ccco2)nc2cc(NS(=O)(=O)c3ccc(Cl)cc3)ccc21	-8	-32	3	5	-11	-27	5	i

By substructure: the compounds so far containing an aryl thioether with sulfur outside any ring
SMILES	CSC inhib	UUG fidelity	MT1-MMP act inh	MT1-MMP act inh RFP	eIF4H inh	Env fusion inh	PABP FP inh	Rce1 inh	others
CC1CC(=O)Nc2ccccc2N1C(=O)CSc1ccc2ccccc2n1 (configuration not stated)	-12	9	11	-2	nt	11	nt	nt
CN1CCC(=O)N([C@H](CSc2ccccc2)Cc2ccccc2)CC1	-1	-3	-4	-4	-7	-18	-6	i

Going on with the list.
SMILES	CSC inhib	UUG fidelity	MT1-MMP act inh	MT1-MMP act inh RFP	eIF4H inh	Env fusion inh	PABP FP inh	Rce1 inh	others
COc1ccc(C)cc1-n1cnnn1	1	nt	-1	9	-3	-9	-1	i
COc1ccc(OC)c(-c2cc(C(=O)Nc3c(C)nn(Cc4ccc(Cl)cc4)c3C)no2)c1	21	-7	-1	-12	-2	87*	-5	i
C/C(=N\OCc1ccccc1C#N)c1cc2ccccc2o1	3	nt	1	1	-8	-2	-6	i
COc1ccc(/C(C)=N/NC(=O)c2ccc(CSc3nncn3C)cc2)cc1	-15	nt	-5	0	-7	-11	-11	i
Cn1cc(-c2ccccc2C(N)=O)c(=O)c2cc(Cl)ccc21	nt	2	1	3	-4	6	4	i
CC(C)NC(=O)Nc1ccc2c(c1)CC(=O)N([C@@H](C)CO)C[C@H](C)[C@@H](CN(C)C(=O)NC1CCCCC1)O2	nt	-26&-7	5	7	nt	4	nt	nt
O=C1c2oc3ccccc3c(=O)c2C(c2ccc(O)cc2)N1c1nccs1 (configuration not stated)	-21	nt	-4	-7	6	3	-1	i
Cc1ccccc1NC(=O)c1cccc2c1C(=O)N(C1CCCCC1)C2	nt	-9	-2	1	4	9	-8	i
CC(C)OC(=O)c1ccc(NC(=O)CSc2nc3ncccc3[nH]2)cc1	-2	nt	-9	-16	-4	26	-4	i
COc1cccc(CN(C(=O)c2ccc([N+](=O)[O-])cc2)C2CCS(=O)(=O)C2)c1 (configuration not stated)	-6	-7	0	7	-11	-6	2	i
Cc1ccccc1SCC(=O)OCC(=O)NCc1ccccc1	6	4	6	1	nt	nt	nt	nt
Cc1cc(=O)oc(C)c1C(=O)Nc1ccc2ncccc2c1	nt	-11	-106	3	125*	45	119	i	eIF4H inh retest=81*;PABP FP inh retest=36
COc1ccccc1NC(=O)c1ccc(SCC(=O)NCc2ccccc2Cl)c([N+](=O)[O-])c1	-3	nt	15	2	-11	-14	4	i
CC1CCN(C(=O)COC(=O)c2c[nH]c3ccccc23)CC1	nt	-10	2	3	nt	11	nt	nt
O=S(=O)(NCCS(=O)(=O)N1CCN(c2ccc(F)cc2)CC1)c1ccc(F)cc1	nt	-13	0	1	nt	6	nt	nt
CC(C)(C)c1cc(CCC(=O)N2CCC2)cc(C(C)(C)C)c1O	-1	-4	-7	-2	-14	-8	3	i
Cn1nnnc1SCC(=O)NC1CCCC1	-19	6	2	1	-4	-13	1	i
CCOC(=O)C(C(=O)Cc1ccccc1)c1ccccc1 (configuration not stated)	nt	-1	3	3	nt	17	nt	nt
O=S(=O)(c1cccc(-c2n[nH]c(=S)n2-c2ccccc2Cl)c1)N1CCOCC1	nt	-13	0	1	nt	-23	nt	nt
Cc1cc(CN2CCCC(CO)(Cc3cccc(Cl)c3)C2)n[nH]1 (configuration not stated)	nt	nt	6	0	4	16	-3	i
CCOC(=O)C(C)Sc1nnc(NC(=O)c2ccc(C)c([N+](=O)[O-])c2)s1 (configuration not stated)	2	nt	5	4	4	nt	4	nt
O=C(NCCN1CCOCC1)c1cccc(Cl)c1	nt	-10	16	3	-3	5	8	i
COc1cc(OC)cc(C(=O)NNC(=S)NC(=O)c2cccnc2)c1	16	-7	3	4	-1	1	-2	i
Cc1ccc(-c2c[n+](Cc3ccc(Cl)c(Cl)c3)c3n2CCC3)cc1	33	nt	-30	-24	1	18	7	i
NC(=O)c1cc(C(=O)c2ccc(Cl)cc2)c[nH]1	-1	nt	-2	-6	-7	-5	-23	i
N#Cc1ccccc1OCC(=O)NC1CCCCC1	-6	-15	0	-1	nt	nt	nt	nt
CCCCC(=O)Nc1ccc2oc(-c3cccnc3)nc2c1	-9	1	15	2	2	nt	5	i
C#CCN(C[C@H]1[C@H](OC(=O)Nc2c(C)noc2C)[C@H](OC(=O)Nc2c(C)noc2C)C[C@@H](C(=O)OC)[C@H]1C(=O)OC)S(=O)(=O)c1ccc(C)cc1	nt	4	-1	1	nt	5	nt	nt
O=S(=O)(c1ccc2c(c1)OCCO2)N1CCN(Cc2ccccc2)CC1	-15	-12	1	0	1	nt	1	i
CCOC(=O)c1c(-c2cccc([N+](=O)[O-])c2)csc1NC(=O)CCCOc1ccccc1	16	nt	0	8	3	-2	-1	i
O=C(O)C1=NN(c2cc(Cl)c(S(=O)(=O)O)cc2Cl)C(=O)C1	nt	-19	-7	5	nt	7	nt	nt
Cc1cc(C(=O)NNC(=S)NCC(C)C)cs1	1	nt	-1	0	-3	1	-5	i
Cc1cccc(C(=O)OC(C)CN2CCOCC2)c1 (configuration not stated)	-1	-6	-2	-1	-4	0	2	i
O=C(O)c1ccc(COc2ccc3c(c2)CCC3)cc1	-19	-36	1	2	-9	-8	-1	i
C=CCNC(=O)COC(=O)c1nc2nccc(C)n2n1	-11	-22	0	2	-1	-19	12	i
S=C(NC1CCCC1)N1CCN(C/C=C/c2ccccc2)CC1	-1	nt	8	-12	3	-2	0	i
CC(=O)Nc1ccc2c(c1)n(C)c(=O)n2C	-1	6	3	4	-14	-39	-10	i
CC(CC(=O)Nc1ccc(S(=O)(=O)N2CCOCC2)cc1)c1ccccc1 (configuration not stated)	3	9	4	-4	7	8	-4	i
Cc1ccc2c(c1)cc1c(=O)n(CC(=O)NCCN3CCCC3)nc(C)n12	24	-2	-1	1	-2	nt	12	i
Cc1ccc(NC(=O)Cn2nc(C)c3ccccc3c2=O)cc1	9	nt	-1	4	2	nt	-8	i
O=C(Cn1nnc(-c2ccccc2Cl)n1)N1CCN(S(=O)(=O)c2ccc(Cl)cc2)CC1	-4	-14	-19	-2	-9	nt	-11	i
O=C(NC(=O)c1ccccc1)NC(=O)c1ccccc1	-3	-6	1	-2	-3	nt	-3	i
O=C(CN1CCCCCC1)Nc1ccc(Br)cc1Br	nt	-16	-5	-5	0	-120	5	i
c1ccc(CCNc2ccc3nncn3n2)cc1	-8	-21	2	1	8	-4	13	i
Cc1ccc(-c2csc(=S)n2CC(=O)OCC(=O)NC(C)C(C)C)cc1 (configuration not stated)	nt	-21	1	-6	12	37	-2	i
O=C(CN(c1cccc(C(F)(F)F)c1)S(=O)(=O)c1ccccc1)N1CCOCC1	-11	-6	-7	-11	-2	-85	-3	i
CCOC(=O)c1sc2nc(SC)nc(-c3ccc(Cl)cc3)c2c1N	-9	-4	3	3	16	-67	6	nt
COc1cc(NC(=O)Nc2nnc([C@@H]3C[C@H](O)[C@@H](CO)O3)s2)cc(OC)c1OC	nt	-13	-1	3	nt	3	nt	nt
Cc1cc(/C=N/Nc2ncnc(N)c2[N+](=O)[O-])c(C)n1-c1ccccc1	3	-72	5	0	-5	55*	8	i
COc1ccc(NC(=O)N2CCc3ccccc3C2)c(OC)c1	-3	-2	1	7	9	-44	-3	i
COc1ccc(C(=O)OCC(=O)Nc2ccc(OC(F)F)cc2)c(OC)c1	-17	7	-2	6	-11	9	-16	i
CCC/C(=C1/c2ccccc2C(=O)N1c1ccccc1)c1ccc2c(c1)OCO2	-38	-9	0	-2	nt	-81	nt	nt
CCCCNC(=O)Cc1cc(=O)[nH]c(=O)[nH]1	10	-6	6	10	-1	4	4	i
CN1CCN(CC(O)COCc2ccc3c(c2)OCO3)CC1 (configuration not stated)	3	-14	-1	-1	-10	nt	30	i
O=C(CCc1ccc(O)cc1)c1c(O)cc(O)cc1O	14	-9	3	-6	-5	-103	10	i
Cc1cccc(N2CCN(C(c3cccs3)c3nnnn3C(C)(C)C)CC2)c1C (configuration not stated)	26	7	-10	-11	-10	nt	-4	i
CCC(C)NC(=O)COc1ccc(S(=O)(=O)N2CCOCC2)cc1 (configuration not stated)	-9	nt	0	1	-8	nt	-6	i
O=C(/C=C/c1ccccc1)N/C(=C/c1ccccc1)C(=O)Nc1cccc(C(=O)O)c1	4	-10	-2	3	1	-17	-5	i
O=C1CCN(c2ccc([N+](=O)[O-])cc2F)CC1	-37	nt	3	4	-6	-12	3	i
c1ccc(CNc2c3ccccc3nc3ccccc23)cc1	52	-16	1	3	3	-118	-3	i
Later entries.
SMILES	CSC inhib	UUG fidelity	MT1-MMP act inh	MT1-MMP act inh RFP	eIF4H inh	Env fusion inh	PABP FP inh	Rce1 inh	others
COc1ccc(C2c3ccc(O)cc3Oc3ncn4nc(-c5ccccn5)nc4c32)cc1 (configuration not stated)	16	-20	-6	-1	-9	14	0	i
COc1ccc2c(c1)c(=O)oc1c(C)c(OCc3ccc(C(=O)O)cc3)ccc12	-6	5	-2	-1	70	nt	10	i	eIF4H inh retest=-2;PABP FP inh retest=12
COc1ccccc1-c1nnc(SCC(=O)c2c(N)n(C3CC3)c(=O)[nH]c2=O)o1	-16	-28	-6	0	nt	-4	nt	nt
CC(=O)Nc1ccc(Cc2nc3c([nH]2)c(=O)n(C)c(=O)n3C)cc1	-2	nt	nt	nt	3	nt	7	i
CCC1CCC(C(=O)NC(C(=O)NCCCN2CCCCC2C)C(C)C)CC1 (configuration not stated)	-7	nt	0	4	-6	9	-3	i
CC(=O)C1=C(c2ccccc2)OC(N)=C(C#N)C1c1ccc(O)cc1 (configuration not stated)	-30	nt	-3	5	-2	-3	-7	i

This is a subset; count on the stated rates, not on these rows.
